Screens deposited in PubChem BioAssay by several laboratories.
AF4-AF9 inh: inhibitors of human MLL-AF4/AF9 interaction; P42568; AlphaScreen, biotin-AF4 peptide binding to FLAG-AF9; inhibition, % at 10 µM; actives 0.47% (n = 350,000); AID 651704;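 active = every replicate reaching a set inhibition limit, whatever the replicate mean, cut at about 25% in these data; inconclusive = mean inhibition reaches that limit but some replicates miss it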;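 also: 0% = plate neutral control median and 100% = total signal loss; the record names both 10 and 1 µM as test concentration; the first replicate is given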
FGF22 binding: FGF22 (human) thermal shift binding. Q9HCT0. recombinant FGF22 thermal shift, SYPRO orange fluorescence; percent of sucrose octasulfate shift, DMSO zero. calls only at 9.99 µM. actives 1.5% (n = 340,000). AID 651658;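 active = melting point raised past a set limit in the mean and every replicate; inconclusive = no clear call; three in four hits are not shown here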
Target sequence (Q9HCT0 whole entry, looked up): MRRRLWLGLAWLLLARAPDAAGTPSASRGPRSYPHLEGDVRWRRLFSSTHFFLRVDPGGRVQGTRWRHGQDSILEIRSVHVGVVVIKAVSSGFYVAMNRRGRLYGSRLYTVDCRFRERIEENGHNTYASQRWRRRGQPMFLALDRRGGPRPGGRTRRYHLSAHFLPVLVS
RanGTP-Impb inh: disruptors of Ran-importin-beta complex formation – biochemical, FRET, CFP-Ran, YFP-importin-beta, homogeneous, primary screen; AID 2216; cell-free CFP-Ran/YFP-importin-beta FRET ratio; inhibition, % (no concentration beside the values); actives 1.1% (n = 300,000);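 active = most replicates above 15%; inconclusive = exactly half above 15%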;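 also: 0% = DMSO wells and 100% = Ran loaded with GDP instead of GTP; wells of about 40 µL received 100 nL stock; the first replicate is given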
Vif A3G: inhibitors of Vif binding to APOBEC3G peptide, primary screen, biochemical, TR-FRET, GST-Vif 1-94, biotin-A3G peptide, dose response retest (AID 1117319). TR-FRET GST-Vif / biotin-A3G peptide binding; higher % means a stronger effect; test concentration not given here; strong numbers were not always called active. inhibition, %; hits with a dose series show IC50 in µM. actives 0.57% (n = 260,000);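 active = above the screen mean plus three standard deviations and confirmed in dose response; inconclusive = results disagree or hit not tested in dose response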;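 also: Vif residues 1-94 fused to GST binding biotinylated APOBEC3G peptide 110-148; 0% = full assay without inhibitor and 100% = GST in place of GST-Vif; retest series ran down from 100 µM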
UCH37 DUB inh: inhibitors of human deubiquitinating enzyme UCH37 | AID 588478 | inhibition, % (no concentration beside the values) | Q9Y5K5 | purified proteasome/UCH37, Ub-AMC cleavage fluorescence | actives 0.33% (n = 330,000);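 active = mean of two replicates above 20%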;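 also: 0% = compound-free wells with enzyme and 100% = wells lacking proteasome; stock transfer was 100 nL into about 20 µL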
Target sequence (Q9Y5K5 whole entry, looked up): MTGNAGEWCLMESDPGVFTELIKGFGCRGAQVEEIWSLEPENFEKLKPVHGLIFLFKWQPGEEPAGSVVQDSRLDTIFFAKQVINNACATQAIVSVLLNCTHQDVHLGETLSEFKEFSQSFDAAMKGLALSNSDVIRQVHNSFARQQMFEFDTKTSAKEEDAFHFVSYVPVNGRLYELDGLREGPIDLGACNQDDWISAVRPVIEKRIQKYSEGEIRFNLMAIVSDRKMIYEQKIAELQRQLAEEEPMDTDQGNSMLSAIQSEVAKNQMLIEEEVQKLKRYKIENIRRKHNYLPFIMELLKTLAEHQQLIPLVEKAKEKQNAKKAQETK
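Reagent: Ub-AMC substrate; assay system: Proteasome-associated human UCH37 deubiquitinase; controls: no-proteasome and no-compound wells; read-out: % inhibition of Ub-AMC cleavage fluorescence; timing: 30 min preincubation with enzyme, 25 min cleavage at room temperature; signal: AMC fluorescence from Ub-AMC cleavage, excitation 355 nm, emission 460 nm; buffer or medium: Tris-HCl pH 7.4 plus ovalbumin, ATP-MgCl2, DTT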
HNF4A DNA FP: change in binding of human HNF4 alpha to DNA. P41235. HNF4a-FITC DNA binding, fluorescence polarization, 1 h. activity change, % at 10 µM. actives 0.3% (n = 360,000); in the data active = activity change above about 30%, passing the limit was not always enough;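 also: controls were the assay level and a saturating level of protein; the project sought stronger binding though the title names inhibitors; some compounds called inactive have numbers as strong as hits; positive values seem to mean higher polarization but the record does not say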
Target sequence (P41235 whole entry, looked up): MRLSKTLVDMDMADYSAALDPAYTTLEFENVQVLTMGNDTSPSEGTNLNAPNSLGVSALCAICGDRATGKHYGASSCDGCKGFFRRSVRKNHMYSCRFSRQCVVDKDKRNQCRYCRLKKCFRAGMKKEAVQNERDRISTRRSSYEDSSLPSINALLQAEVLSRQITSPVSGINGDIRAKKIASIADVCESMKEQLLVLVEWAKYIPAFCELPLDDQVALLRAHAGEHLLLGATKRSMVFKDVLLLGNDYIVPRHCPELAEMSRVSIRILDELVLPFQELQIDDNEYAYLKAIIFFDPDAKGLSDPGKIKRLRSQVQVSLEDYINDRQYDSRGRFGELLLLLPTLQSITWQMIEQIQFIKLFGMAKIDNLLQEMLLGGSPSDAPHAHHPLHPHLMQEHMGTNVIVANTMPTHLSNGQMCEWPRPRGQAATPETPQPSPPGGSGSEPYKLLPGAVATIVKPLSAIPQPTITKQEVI
Ecoli growth: blocks Escherichia coli growth | actives 0.21% (n = 330,000) | OD600, 23 h; stronger effect = lower value | OD600 absorbance (test concentration not listed) | AID 1053175;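 active = OD600 absorbance below the run mean of sample wells minus 3.6 SD, in any replicate, cut at about 0.56 in these data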;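 also: stock transfer was 300 nL into about 60 µL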
An asterisk follows results filed as active. Only part of the results is shown. The share of hits here may be higher or lower than overall.

Results for O=C(CP(=O)(c1ccccc1)c1ccccc1)Nc1cccc(CP(=O)(c2ccccc2)c2ccccc2)c1 ?
AF4-AF9 inh: -16; FGF22 binding: inactive; RanGTP-Impb inh: 1.9; Vif A3G: -11%; UCH37 DUB inh: 0.9; HNF4A DNA FP: -3.9; Ecoli growth: 0.67

Results for Cc1ccccc1NC1=C(C(=O)c2ccccc2)N(C)S(=O)(=O)c2ccccc21 ?
RanGTP-Impb inh: -9.1; Vif A3G: -5%; UCH37 DUB inh: 7.0; HNF4A DNA FP: 1.6; Ecoli growth: 0.77

Results for O=C1c2cccnc2C(O)N1C1CCCCC1 (centres undefined) ?
AF4-AF9 inh: 5.9; FGF22 binding: inactive; RanGTP-Impb inh: 2.0; Vif A3G: 5%; UCH37 DUB inh: 3.8; HNF4A DNA FP: -0.5; Ecoli growth: 0.73

Results for COCCNCC(=O)N1c2ccccc2Sc2ccccc21 ?
AF4-AF9 inh: 0.7; FGF22 binding: inactive; RanGTP-Impb inh: 0.8; Vif A3G: 0%; UCH37 DUB inh: 0.7; HNF4A DNA FP: -0.5; Ecoli growth: 0.64

How did COc1ccc(NS(=O)(=O)c2cccc(C(=O)N(C)Cc3ccc(SC)cc3)c2)cc1 do in these assays?
AF4-AF9 inh: 7.4; FGF22 binding: inactive; RanGTP-Impb inh: -6.2; Vif A3G: -7%; UCH37 DUB inh: 2.0; HNF4A DNA FP: 1.9; Ecoli growth: 0.65

How did CC(=O)/C=C(\C)N=Nc1c(O)[nH]c2ccccc12 do in these assays?
AF4-AF9 inh: 7.7; FGF22 binding: inactive; RanGTP-Impb inh: -1.8; Vif A3G: 3%; UCH37 DUB inh: 6.4; HNF4A DNA FP: 4.7; Ecoli growth: 0.64

Results for CCOC(=O)C1CCN(c2ccc([N+](=O)[O-])cc2)CC1 ?
AF4-AF9 inh: 6.5; FGF22 binding: inactive; RanGTP-Impb inh: -7.8; Vif A3G: 2%; UCH37 DUB inh: 4.7; HNF4A DNA FP: -2.1; Ecoli growth: 0.68

Results for CC(C(=O)Nc1cc(C(F)(F)F)ccc1N1CCOCC1)N1C(=O)C2CC=CCC2C1=O (centres undefined) ?
RanGTP-Impb inh: -1.4; Vif A3G: 6%; UCH37 DUB inh: 1.4; HNF4A DNA FP: 0.1; Ecoli growth: 0.74

What do the screens show for `Cc1ccc(S(=O)(=O)N2CCOCC2)cc1C(=O)OC1CCCCC1=O` (centres undefined)?
AF4-AF9 inh: -12; FGF22 binding: inactive; RanGTP-Impb inh: 2.9; Vif A3G: 4%; UCH37 DUB inh: -1.0; HNF4A DNA FP: 0.7; Ecoli growth: 0.61

How did O=C(Nc1ccc(OCC(F)(F)C(F)F)c(C(F)(F)F)c1)c1ccccc1 do in these assays?
RanGTP-Impb inh: 4.2; Vif A3G: -3%; UCH37 DUB inh: 2.1; HNF4A DNA FP: -1.3; Ecoli growth: 0.71

How did N#Cc1cc(Oc2ccc(Cl)cc2)c(N2CCOCC2)cc1C#N do in these assays?
RanGTP-Impb inh: -3.7; Vif A3G: -12%; UCH37 DUB inh: -10; HNF4A DNA FP: 0.2; Ecoli growth: 0.64

What do the screens show for `O=C(CCC(=O)N(CC(=O)NC1CCCCC1)c1ccc2c(c1)OCCO2)Nc1ccccn1`?
RanGTP-Impb inh: 5.2; Vif A3G: 0%; UCH37 DUB inh: 3.9; Ecoli growth: 0.72

The closing 2 records of the part before open the next one.
How did N#Cc1cc(Oc2ccc(Cl)cc2)c(N2CCOCC2)cc1C#N do in these assays?
RanGTP-Impb inh: -3.7; Vif A3G: -12%; UCH37 DUB inh: -10; HNF4A DNA FP: 0.2; Ecoli growth: 0.64

What do the screens show for `O=C(CCC(=O)N(CC(=O)NC1CCCCC1)c1ccc2c(c1)OCCO2)Nc1ccccn1`?
RanGTP-Impb inh: 5.2; Vif A3G: 0%; UCH37 DUB inh: 3.9; Ecoli growth: 0.72

How did COc1ccc(NC(=O)CSc2nncn2C)cc1OC do in these assays?
RanGTP-Impb inh: 2.5; Vif A3G: 26%; UCH37 DUB inh: -0.5; HNF4A DNA FP: -2.5; Ecoli growth: 0.69

How did O=C(NNc1cc(N2CCOCC2)nc(N2CCOCC2)n1)C12CC3CC(CC(C3)C1)C2 do in these assays?
RanGTP-Impb inh: 57*; UCH37 DUB inh: 4.6; HNF4A DNA FP: 5.8; Ecoli growth: 0.66

How did O=C(NC1CC1)C1=C[C@H](c2ccccc2)C[C@H](OCc2ccc(CO)cc2)O1 do in these assays?
AF4-AF9 inh: -0.1; FGF22 binding: inactive; RanGTP-Impb inh: 2.3; Vif A3G: 2%; UCH37 DUB inh: -35; HNF4A DNA FP: 2.3; Ecoli growth: 0.8

Results for S=c1[nH]cc2cnccn12 ?
AF4-AF9 inh: -2.7; FGF22 binding: inactive; Vif A3G: -7%; HNF4A DNA FP: -0.4

What do the screens show for `Cc1cccc(C)c1NC(=O)CNC(=O)CNC(=O)Cc1cccc2ccccc12`?
AF4-AF9 inh: -5.9; FGF22 binding: inactive; Vif A3G: -8%; UCH37 DUB inh: 3.8; HNF4A DNA FP: -0.4; Ecoli growth: 0.68

How did Cc1cc(NCc2ccc(F)cc2)nc2cc(Cl)ccc12 do in these assays?
AF4-AF9 inh: -2.7; FGF22 binding: inactive; RanGTP-Impb inh: 0.7; Vif A3G: 8%; UCH37 DUB inh: -14; HNF4A DNA FP: 3.8; Ecoli growth: 0.6

Results for COC(=O)C1=C(C)N(CC2CCCO2)C(=O)C1 (centres undefined) ?
RanGTP-Impb inh: 17*; Vif A3G: 10%; UCH37 DUB inh: 1.0; HNF4A DNA FP: -0.4; Ecoli growth: 0.7

How did C=CCN1C(=O)C(CC(=O)O)SC1=Nc1ccc(C(=O)O)cc1 (centres undefined) do in these assays?
AF4-AF9 inh: -5.5; FGF22 binding: inactive; RanGTP-Impb inh: 0.8; Vif A3G: 33%; UCH37 DUB inh: 4.3; HNF4A DNA FP: 3.7; Ecoli growth: 0.72

Results for O=S(=O)(Nc1ccon1)c1ccc(Br)cc1 ?
AF4-AF9 inh: -2.5; FGF22 binding: inactive; RanGTP-Impb inh: -2.7; Vif A3G: -4%; UCH37 DUB inh: -2.5; HNF4A DNA FP: 0.4; Ecoli growth: 0.69

Results for COCc1cc(C)n(CC(=O)Nc2ccccc2C(=O)OC)c(=O)c1C#N ?
RanGTP-Impb inh: 1.2; Vif A3G: 25%; UCH37 DUB inh: -30; HNF4A DNA FP: 2.1; Ecoli growth: 0.65

What do the screens show for `CCc1cc2ccc(OC)cc2nc1SCC(=O)NNC(C)=O`?
AF4-AF9 inh: -1.8; FGF22 binding: inactive; RanGTP-Impb inh: 0.3; Vif A3G: -114%; UCH37 DUB inh: 1.0; HNF4A DNA FP: 1.4; Ecoli growth: 0.71

Results for COc1ccc(C(CNC(=O)c2cc3c(s2)CCCC3)N2CCOCC2)cc1 (centres undefined) ?
AF4-AF9 inh: 4.3; RanGTP-Impb inh: -1.2; UCH37 DUB inh: 0.3; HNF4A DNA FP: 1.4; Ecoli growth: 0.69

Results for CNc1nnc(SCC(=O)N2c3ccccc3NC(=O)CC2C)s1 (centres undefined) ?
AF4-AF9 inh: 1.4; FGF22 binding: inactive; Vif A3G: -8%; UCH37 DUB inh: 1.7; HNF4A DNA FP: -1.5; Ecoli growth: 0.69

How did Cc1ccsc1S(=O)(=O)N1CCC(CO)(CC2CCCCO2)CC1 (centres undefined) do in these assays?
AF4-AF9 inh: inconclusive; FGF22 binding: inactive; RanGTP-Impb inh: 1.8; Vif A3G: 8%; UCH37 DUB inh: 2.8; HNF4A DNA FP: -1.7; Ecoli growth: 0.7

What do the screens show for `CC(C)c1nnc(NC(=O)C2CCN(c3cnccn3)CC2)s1`?
RanGTP-Impb inh: 1.8; Vif A3G: -2%; UCH37 DUB inh: -8.7; HNF4A DNA FP: 2.7; Ecoli growth: 0.68

How did COc1ccccc1/C=N/NC(=O)c1ccc(N(C)S(=O)(=O)c2ccccc2)cc1 do in these assays?
AF4-AF9 inh: 4.6; FGF22 binding: inactive; RanGTP-Impb inh: -2.0; Vif A3G: -7%; HNF4A DNA FP: 0.1

What do the screens show for `N#CCSc1nnc(-c2cnccn2)n1Cc1ccccc1`?
RanGTP-Impb inh: -0.9; Vif A3G: -4%; UCH37 DUB inh: 0.9; HNF4A DNA FP: 2.2; Ecoli growth: 0.68

How did COc1ccccc1/C=C/C(=O)OCC(=O)Nc1nnc(-c2ccccc2)o1 do in these assays?
AF4-AF9 inh: 0.4; FGF22 binding: inactive; Vif A3G: 3%; UCH37 DUB inh: -35; HNF4A DNA FP: -2.2; Ecoli growth: 0.63

Results for COc1ccc2oc(=N)c(C(=O)Nc3cccc(C)c3C)cc2c1 ?
AF4-AF9 inh: -0.4; FGF22 binding: inactive; RanGTP-Impb inh: -2.4; UCH37 DUB inh: 4.6; HNF4A DNA FP: -1.6; Ecoli growth: 0.67

What do the screens show for `Cc1cccc(NC(=O)c2ccc(S(=O)(=O)NCc3cccnc3)cc2)c1C`?
AF4-AF9 inh: -1.8; FGF22 binding: inactive; RanGTP-Impb inh: 0.0; Vif A3G: 4%; UCH37 DUB inh: -1.2; HNF4A DNA FP: -0.7; Ecoli growth: 0.69

What do the screens show for `COc1ccc(N(CC(=O)NCc2ccco2)S(C)(=O)=O)c(OC)c1`?
AF4-AF9 inh: -1.2; FGF22 binding: inactive; RanGTP-Impb inh: 1.8; UCH37 DUB inh: 1.8; HNF4A DNA FP: 4.8; Ecoli growth: 0.6

Results for C#CCOc1c(Cl)cc(/C=N/NC(N)=S)cc1OCC ?
AF4-AF9 inh: -4.6; FGF22 binding: inactive; RanGTP-Impb inh: 1.2; Vif A3G: 3%; HNF4A DNA FP: 0.9

How did CCC1NC(=O)c2cc3ccccc3cc2-n2c1nc1cc(OC)c(OC)cc1c2=O (centres undefined) do in these assays?
AF4-AF9 inh: 4.1; FGF22 binding: inactive; HNF4A DNA FP: 0.3

What do the screens show for `Cc1cc(C)n(Cc2ccc(NC(=O)c3c([N+](=O)[O-])c(C)nn3C)cc2)n1`?
AF4-AF9 inh: 9.0; FGF22 binding: inactive; RanGTP-Impb inh: 5.2; Vif A3G: 6%; UCH37 DUB inh: -1.1; HNF4A DNA FP: 4.0; Ecoli growth: 0.73

What do the screens show for `O=C(O)CN1C(=O)/C(=C2\SC(=S)N(C(Cc3ccccc3)C(=O)O)C2=O)c2ccccc21` (centres undefined)?
AF4-AF9 inh: 0.4; FGF22 binding: inactive; RanGTP-Impb inh: -1.7; UCH37 DUB inh: 6.8; HNF4A DNA FP: 1.0; Ecoli growth: 0.64

Results for COc1cccc(CN(C)C(=O)c2ccc(S(=O)(=O)Nc3cccc(C)c3C)cc2)c1OC ?
AF4-AF9 inh: 3.7; FGF22 binding: inactive; Vif A3G: -9%; HNF4A DNA FP: 1.1

How did Cc1cccc(S(=O)(=O)Nc2ccncc2)c1 do in these assays?
AF4-AF9 inh: -7.3; FGF22 binding: inactive; RanGTP-Impb inh: -1.6; UCH37 DUB inh: -0.8; HNF4A DNA FP: 0.6; Ecoli growth: 0.68

How did CCOC(=O)c1cnc2c(c(C)nn2-c2ccc(C)cc2)c1Cl do in these assays?
AF4-AF9 inh: -2.2; FGF22 binding: inactive; RanGTP-Impb inh: -1.6; Vif A3G: -30%; UCH37 DUB inh: -19; HNF4A DNA FP: 3.5; Ecoli growth: 0.68
